# Compound activity: PubChem BioAssay, ICCB-Longwood Screening Facility, Harvard Medical School
# CapD inh = blocks the Bacillus anthracis CapD enzyme | purified CapD enzyme, fluorescence intensity read-out; stronger effect = lower value; some hits fall short of the stated cut | z-score (concentration not given with the values) | 140,000 tested, 0.23% active | AID 492967;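 active = z-score under -4 in either of two replicates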;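 note: stock transfer was 100 nL into about 40 µL; score is relative to mean and spread of the plate; one replicate is shown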
# AID504770 = growth inhibitors of E. coli YBA685 in a screen for V. cholerae RctB (chromosome II replication) inhibitors | E. coli YBA685 rctB-dependent plasmid, OD600 growth, 3 h; stronger effect = lower value | z-score (concentration not given with the values) | AID 504770 | 130,000 tested, 0.27% active;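 active = z-score under -2 on both plates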;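 note: wells of about 30 µL received 100 nL stock; score is relative to mean and SD of the test wells; the first replicate is given; strong numbers were not always called active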
# Starred values were filed as active, the others as inactive; nt = no result given; & = joins results of further samples.
# Results follow in this order: CapD inh, AID504770
O=C(Nc1ccc(Cl)cc1)OCCSc1nc2ccccc2s1
 : -0.115, nt
CCOC(=O)c1c(NC(=O)CC2NCCNC2=O)sc2c1CCCC2 (centres undefined)
 : 5.09, -0.3
CN(C)c1ncn(Cc2c(Cl)cccc2Cl)c2ncnc1-2
 : -0.75, -0.4
CC(C)=CCOc1c2occc2cc2ccc(=O)oc12
 : nt, 0.7
CS(=O)(=O)C1(S(C)(=O)=O)CCCCC1
 : 0.625, -0.4
CC1=C(C)CS(=Nc2cccc([N+](=O)[O-])c2)N(S(=O)(=O)c2ccccc2)C1 (centres undefined)
 : 0.425, nt
O=C(CSc1ncccn1)N1CCN(c2ccccc2)CC1
 : -0.45, 1.25
CC1CCN(c2nnc(NC(=O)c3cc(-c4ccc(Br)cc4)on3)s2)CC1
 : 0.45, 0.55
O=C(NCc1ccco1)/C(=C/c1cn(-c2ccccc2)nc1-c1ccccc1)NC(=O)c1ccc(Cl)cc1Cl
 : 0.325, nt
Cc1[nH]c(=S)sc1CC(=O)NC1CCCCC1C (centres undefined)
 : nt, 1.7
CC(C)(C)NC(=O)CSc1ncn[nH]1
 : -1.44, nt
O=C(NCCc1ccccc1)c1ccc(Cl)cc1
 : -1, -0.4
CCOC(=O)c1nc2ccccc2c(=O)n1-c1ccc(C)cc1C
 : 0.18, -0.3
CCCS(=O)(=O)c1c(S(=O)(=O)CCC)c2c(C)cc(C)cn2c1C(=O)c1ccc(CC)cc1
 : -0.305, nt
O=C(OCC1CCCO1)c1ccccc1Br (centres undefined)
 : -0.84, 0.55
CC(C)c1ccc(C#N)cc1
 : nt, 0.15
Cc1cc(C)cc(Oc2nc(-c3ccccc3)cc(C)c2S(C)(=O)=O)c1
 : 0.47, nt
Cc1ccc2c(c1)C1CN(C)CCC1N2C(=O)C12CC3CC(CC(C3)C1)C2 (centres undefined)
 : -0.315, nt
COc1cc2nc(C3CCC3)n(NC(=O)C(OC(C)=O)c3ccccc3)c(=O)c2cc1OC (centres undefined)
 : nt, -0.9
CCN1C(=O)S/C(=C/c2ccc(N3CCCC3)c(F)c2)C1=O
 : -0.12, -0.05
COc1ccc(C2NC(=O)NC(C)=C2C(=O)OCc2ccccc2)cc1Br (centres undefined)
 : 0.24, nt
CC1CCCC(C)N1C(=O)COC(=O)c1cc(C(F)(F)F)cc(C(F)(F)F)c1 (centres undefined)
 : nt, -1.15
O=C1c2ccccc2C(=O)C1c1ccc2ccccc2c1
 : -3.46, -1.05
OC(CNc1ccc(Cl)cc1)CSc1ccc(Cl)cc1 (centres undefined)
 : -0.42, -0.65
Cc1ccc(C(=O)O)c(=O)[nH]1
 : 20.4, -0.5
O=C(Oc1ccc(Cl)c2cccnc12)c1ccc(F)cc1
 : -0.645, -1.05
O=C(Nc1nc2c(ccc3ccccc32)s1)c1cc(=O)c2ccccc2o1
 : 0.01, nt
O=C(CC(C(=O)O)N1CCCCC1)Nc1ccccc1 (centres undefined)
 : 0.6, -0.25
Cn1cnnc1SCC(=O)N1c2ccccc2CCc2ccccc21
 : -0.745, nt
CCCCC1(O)CCOC(C)C1 (centres undefined)
 : 0.02, -0.65
CC(C)(C)NC(=O)CSc1nsc(SCC(=O)NC(C)(C)C)c1C#N
 : 0.435, -0.6
COc1ccc(-c2c[n+](CC(=O)c3cccc([N+](=O)[O-])c3)c3n2CCCC3)cc1
 : 0.72, nt
CCOC(=O)C1=C(C)N=c2s/c(=C\c3ccc(O)c(Br)c3)c(=O)n2C1c1ccc(OC)cc1 (centres undefined)
 : -0.185, nt
NC(=O)CC1(Nc2ccccc2)CCN(Cc2ccccc2)CC1
 : -0.545, 2.1
NNc1nc2c(Cl)cc(Cl)cc2s1
 : 0.22, -1.1
CCOC(=O)c1cnn(-c2ccc(C(F)(F)F)cn2)c1N
 : nt, -0.25
COc1cc(NC(=O)N(C)C)cc(OC)c1OC
 : -0.17, -0.15
COc1ccccc1CCNCc1ccccc1C(F)(F)F
 : -0.03, -1.05
CCOc1ccc(NC(=O)CCC(=O)Nc2cc(OC)c(NC(=O)c3ccco3)cc2OC)cc1
 : nt, 0.05
COc1ccc(-c2c[n+](=O)c3c(n2[O-])CCC3)cc1
 : nt, -0.3
CC1CCCC(C)N1C(=O)COc1ccc(C(=O)N/N=C/c2ccncc2)cc1 (centres undefined)
 : nt, 0.75
C=CCSc1nsc(N)n1
 : nt, -0.55
CCSc1nc2[nH]c(=O)cc(O)c2s1
 : nt, -0.75
Cc1onc(-c2c(Cl)cccc2Cl)c1C(=O)N[C@@H]1C(=O)N2[C@@H]1SC(C)(C)[C@@H]2C(=O)O
 : 1.02&-0.125, 0.35
CC1CCN(S(=O)(=O)c2ccc(C(=O)Nc3sccc3C(N)=O)cc2)CC1
 : nt, 0
CC1CCCCN1C(=S)Nc1ccc(S(=O)(=O)N2CCCCC2)cc1 (centres undefined)
 : 0.775, -0.5
C=CCn1c(=S)sc2c(SCC(=O)N3CCc4ccccc43)ncnc21
 : 1.31, 0.05
CCOC(=O)CN1C(=O)/C(=C2\SC(=S)N(NC(=O)c3cccnc3)C2=O)c2ccccc21
 : 0.045, nt
Cc1ccccc1CS(=O)(=O)Cc1ccc(C(=O)NCc2cccnc2)o1
 : -0.955, -0.55
CCCNC(=O)c1[nH]c2ccccc2c1Sc1ccc(Cl)cc1
 : -0.225, 0.35
CC(=O)NC1C(Oc2ccccc2)OC(CO)C(O)C1O (centres undefined)
 : nt, -1.25
CC1=C(C#N)C(=O)N(CCc2ccccc2)C(=O)/C1=C/c1ccc(-c2ccc(S(N)(=O)=O)cc2)o1
 : 6.71, 1.3
O=C(NC(=S)Nc1ccc(Cl)c(C(F)(F)F)c1)c1ccccc1
 : -0.15, nt
CC(OC(=O)C1CCCCC1)c1nc2ccccc2[nH]1 (centres undefined)
 : nt, -0.05
N#Cc1ccc(S(=O)(=O)Oc2ccc(Oc3ccccc3)cc2)cc1
 : -0.65, nt
O=C(CSc1nc(Nc2ccc3c(c2)OCO3)c2ccccc2n1)c1ccc(Cl)cc1
 : 24.1, 0.3
CCOC(=O)c1csc(-c2ccc(C(F)(F)F)cn2)n1
 : 1.5, -0.65
CC(=O)OC(C(=O)n1nc(C)cc1C)c1ccccc1 (centres undefined)
 : nt, -0.2
COc1ccc(C(=O)NNC(=O)OC/C=C(/C)Cl)cc1
 : -1.28, nt
COC(=O)C(F)C(OC)(OC)OC (centres undefined)
 : nt, -0.1

# Retrieved by compound from the entries so far (seven):
# Results follow in this order: CapD inh, AID504770
CC1CCN(S(=O)(=O)c2ccc(C(=O)Nc3sccc3C(N)=O)cc2)CC1
 : nt, 0
CC(=O)OC(C(=O)n1nc(C)cc1C)c1ccccc1 (centres undefined)
 : nt, -0.2
CCCNC(=O)c1[nH]c2ccccc2c1Sc1ccc(Cl)cc1
 : -0.225, 0.35
COC(=O)C(F)C(OC)(OC)OC (centres undefined)
 : nt, -0.1
CCSc1nc2[nH]c(=O)cc(O)c2s1
 : nt, -0.75
Cc1ccccc1CS(=O)(=O)Cc1ccc(C(=O)NCc2cccnc2)o1
 : -0.955, -0.55
CC1=C(C#N)C(=O)N(CCc2ccccc2)C(=O)/C1=C/c1ccc(-c2ccc(S(N)(=O)=O)cc2)o1
 : 6.71, 1.3

# (cont.)
# Results follow in this order: CapD inh, AID504770
Cc1ccc2c(c1)-c1onc(C(=O)N(CCC(C)C)Cc3ccco3)c1CO2
 : 0.725, -0.65
O=C1CC(n2nnn(-c3cccc4ccccc34)c2=S)C2COC1O2 (centres undefined)
 : -0.265, nt
Cc1nc(-c2cccnc2)nc(NCc2ccccc2)c1Cl
 : 0.55, -0.75
CCc1ccccc1NC(=S)N(CCCN1CCOCC1)Cc1ccccn1
 : -0.11, nt
CCC(C)Cn1c(COC)nc2ccccc21 (centres undefined)
 : 0.325, 0
O=c1ccc2cc(S(=O)(=O)N3CCCC3)ccc2o1
 : nt, -0.55
N#Cc1ccc(OCc2ccc(F)cc2)cc1
 : -1.21, 0.85
Fc1ccc(N/N=C(\C=C\c2c(F)cccc2Cl)c2ccc(F)cc2)cc1
 : 18.6, nt
COCc1cc(C)nc2sc(C(=O)Nc3ccc(Br)c(Cl)c3)c(N)c12
 : -0.325, nt
CCC(C)NC(=S)Nc1ccccc1 (centres undefined)
 : -0.12, 1.35
O=C(Nc1ccccc1CC[N+](=O)[O-])N1CCN(c2ccccc2)CC1
 : -0.275, nt
CCn1c(SCC(N)=O)nnc1C(C)Oc1ccc(C)cc1C (centres undefined)
 : -0.05, 0.5
N#CC(NCc1ccccc1)c1ccc(Cl)c(Cl)c1 (centres undefined)
 : 0.575, nt
O=C1CN(C(=O)C2COc3ccccc3O2)c2ccccc2N1 (centres undefined)
 : nt, -0.95
CCCCc1ccc(NC(=O)Cn2c(C(C)O)nc3ccccc32)cc1 (centres undefined)
 : 0.385, 0.45
CSc1nc2ccccc2c(=O)n1C
 : 0.095, -1.15
CN(C(=O)CSc1ncccc1C(=O)O)C1CCCCC1
 : nt, -0.1
CC1=NN(c2cccc(C(F)(F)F)c2)C(=O)C1
 : nt, -1.1
c1cncc(CNCc2ccc3c(c2)OCO3)c1
 : nt, 1.4
COc1cc(CN2CCN(CCOC(=O)NCc3ccc(F)cc3)CC2)cc2c1OCO2
 : -0.62, nt
O=C(O)c1ccn(COc2ccccc2)n1
 : 0.33, -0.2
CC(c1ccco1)N(C(=S)Nc1cccc(Cl)c1)C1CCCCC1 (centres undefined)
 : 0.12, -0.2
O=c1[nH]c(CSC2=NCCCN2)nc2ccccc12
 : nt, 0.7
COc1cccc(-c2nc(CS(=O)(=O)CC(=O)NC(C)c3ccccc3)c(C)o2)c1 (centres undefined)
 : 0.095, 0.65
Cc1cc(NC2CCCCC2)n2c(nc3ccccc32)c1C#N
 : 6.18, nt
Cc1cccc(NC(=O)CSc2nc(C)cc(C(F)(F)F)c2C#N)n1
 : 0.825, nt
O=C1NC(=O)C(=CN2CCN(S(=O)(=O)/C=C/c3ccccc3)CC2)C(=O)N1
 : nt, 1.3
Cc1cccc(N(Cc2cc3ccccc3[nH]c2=O)S(C)(=O)=O)c1
 : 12.5, 0.75
Cc1c(C(=O)Nc2c(F)cc(F)cc2Br)sc2ncn(CC(=O)N3CCOCC3)c(=O)c12
 : -0.46, nt
Cc1ccc2cc(N=Cc3ccc(O)cc3)ccc2n1
 : 1.85, -0.35
CCOC(=O)C1CCN(C(=O)c2sc3nc(C)nc(N4CCC(C)CC4)c3c2C)CC1
 : 0.625, nt
O=C(COCCn1cc(-c2ccc(Cl)cc2)cn1)NCCN1CCOCC1
 : -0.43, nt
Cc1csc(N=C(N)N)n1
 : -0.27, nt
CC(C)(C)c1ccc(-c2nc(NCCN3CCOCC3)c3ccccc3n2)cc1
 : 0.55, nt
COc1cccc(NC(=O)Cn2c(=O)n(Cc3ccc(C(=O)NCc4ccco4)cc3)c(=O)c3ccccc32)c1
 : 0.215, 0.25
CC1(C)CC(=O)C(C=NCc2cccnc2)=C(O)C1
 : 4.09, -1
CCOC(=O)C1=C(C)N=c2s/c(=C/c3ccc(OC)c(OC)c3)c(=O)n2C1c1ccc(OC(C)=O)cc1 (centres undefined)
 : 0.105, nt
Cc1cc(F)c(F)cc1C(=O)N1CCN(c2cc(N3CCCCC3)c(F)cc2[N+](=O)[O-])CC1
 : -0.66, nt
CC(C1CC2CCC1C2)n1c(COc2ccccc2F)nnc1SCCC#N (centres undefined)
 : nt, -0.35
CCOc1ccc(NC(=O)Cn2c(=O)oc3cc(S(=O)(=O)N4CCCC4)ccc32)cc1
 : -0.59, -1.15
N#CC1=C(N)Nc2onc(-c3cccc(O)c3)c2C1c1ccccc1 (centres undefined)
 : 0.125, -0.15
N#CCOc1nc(OCC#N)nc(OCC#N)n1
 : nt, 2.95
Cc1cc(C)nc(N/C=C(\C#N)S(=O)(=O)Cc2ccco2)n1
 : -0.05, nt
CCCCN1C(=O)CC(C(=O)NC2CCCCCC2)C1c1ccc(OC)cc1 (centres undefined)
 : nt, 0.1
CN1C(C(=O)N2CCCC2)=CC(c2cccs2)=NS1(=O)=O
 : 9.15, -0.85
COc1ccc(N=Cc2cccn2-c2ccc(Br)cc2)cn1
 : 6.8, -0.35
O=S(=O)(c1ccc(N2CCC(CNc3nc4ccccc4s3)CC2)cc1)N1CCOCC1
 : nt, 1.55
O=C(O)/C=C/c1nc2ccccc2o1
 : nt, 0
O=C(Nc1cccc(C(=O)O)c1)/C(=C\c1ccc2c(c1)OCO2)NC(=O)c1ccccc1
 : -0.435, nt
Cc1nc2cc(C(F)(F)F)ccc2n1C1CCN(CC(=O)N2CCCC2)CC1
 : nt, 0.05
COc1ccc(S(=O)(=O)N2CCc3ccccc3C2)cc1C(=O)O
 : 0.295, -1.2
Cc1nccc(-c2cccc(NN=C(C#N)C#N)c2)n1
 : -3.38, -0.15
CC(C)(C)NC(=O)CSc1nnc(NC(=O)C2CC(=O)N(c3ccc(F)cc3)C2)s1 (centres undefined)
 : nt, 0.05
COc1ccc(NC(=O)C(NC(C)=O)C(=O)NCc2ccccc2Cl)cc1 (centres undefined)
 : -0.595, nt
COc1cc(/C=C2\SC(=O)NC2=O)ccc1Oc1ccc([N+](=O)[O-])cc1[N+](=O)[O-]
 : 0.33, nt
O=C(Nc1ccc(S(=O)(=O)N2CCOCC2)cc1)c1ccccc1
 : 1.13, 0.65
CCOC(=O)c1cc2c(c(CSc3nc4ccccc4c(=O)n3NC(=O)c3ccc(OC)cc3)c1)OCOC2
 : -0.65, nt
COc1ccc(CSc2ncn[nH]2)cc1
 : -0.34&0.075, -0.5&-0.1
CN1C(=O)Cc2cc(S(=O)(=O)NCCN3CCN(c4ccccc4F)CC3)ccc21
 : -0.42, -0.75
COc1ccccc1CCOC(=O)NNC(=O)c1ccco1
 : 0.275, nt
COc1ccc(CCN=Cc2ccccn2)cc1OC
 : -0.025, nt
COC(=O)c1ccc(OCC(O)CN(Cc2ccccc2O)C2CCCCC2)c(OC)c1 (centres undefined)
 : nt, 0
